PKD1 kinase inh – inhibitors of human PKD1 kinase. inhibition, %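 (about 10 µM by stock and volumes)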. PKD1 kinase fluorescence polarization assay. Q15139. 200,000 tested, 0.056% active;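 active means inhibition of 50% or more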;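 further: controls were vehicle for no effect and a reference inhibitor for full effect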
Target sequence (Q15139 whole entry, looked up): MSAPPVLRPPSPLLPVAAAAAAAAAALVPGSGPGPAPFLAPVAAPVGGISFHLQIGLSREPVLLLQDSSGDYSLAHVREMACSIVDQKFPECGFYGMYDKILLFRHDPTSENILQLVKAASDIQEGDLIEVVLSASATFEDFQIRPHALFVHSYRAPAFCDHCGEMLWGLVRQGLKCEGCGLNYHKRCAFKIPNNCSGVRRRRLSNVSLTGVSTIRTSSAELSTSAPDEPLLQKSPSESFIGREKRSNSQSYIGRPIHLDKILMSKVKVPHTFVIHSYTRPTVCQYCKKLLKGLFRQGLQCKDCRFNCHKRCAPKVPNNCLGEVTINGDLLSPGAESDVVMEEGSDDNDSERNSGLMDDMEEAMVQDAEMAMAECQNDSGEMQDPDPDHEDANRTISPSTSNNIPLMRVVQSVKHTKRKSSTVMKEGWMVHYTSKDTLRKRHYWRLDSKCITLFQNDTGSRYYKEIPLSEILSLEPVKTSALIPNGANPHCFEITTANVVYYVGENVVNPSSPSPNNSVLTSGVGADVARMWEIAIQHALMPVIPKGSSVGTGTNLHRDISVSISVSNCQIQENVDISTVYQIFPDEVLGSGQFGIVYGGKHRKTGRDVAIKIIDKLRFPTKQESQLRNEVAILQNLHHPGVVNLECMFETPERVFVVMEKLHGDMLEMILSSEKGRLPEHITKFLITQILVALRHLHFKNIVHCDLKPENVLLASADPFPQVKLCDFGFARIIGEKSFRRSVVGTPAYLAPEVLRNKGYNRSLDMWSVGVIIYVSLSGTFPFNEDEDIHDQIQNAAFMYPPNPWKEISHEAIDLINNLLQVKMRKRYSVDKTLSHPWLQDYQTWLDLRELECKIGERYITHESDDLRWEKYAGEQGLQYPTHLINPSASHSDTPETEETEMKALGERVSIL
HSV replic up – increases HSV replication in cells. 220,000 tested, 0.005% active. maximum fold increase. HSV replication augmentation in cells, fold increase;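 active means peak rise of 1.5-fold or more in the series; inconclusive means self-fluorescent or not available for retest; tested in PC3 cells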;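 further: first round at 10 µM; read as green reporter fluorescence; hits show the peak of a series up to 25 µM; 1 = signal of infected wells without compound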
Insulin prom inh – TRM-6 insulin promoter activity inhibition. TRM-6 cells (human fetal islet line), insulin promoter-eGFP reporter, imaging; reporter expression induced with tamoxifen. 130,000 tested, 0.9% active. inhibition, % at 2 µM;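 active means inhibition above the mean plus 3 SD, with well images judged a real hit on visual review, cut at about 60% in these data, passing the limit was not always enough; inconclusive means inhibition over the cutoff but images rejected on review; inactive means inhibition not above the cutoff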
GALR2 ag – GALR2 (human) receptor agonism. O43603. GALR2-expressing cells, agonist activation read-out. activation, %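 (tested at 5 µM)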. 140,000 tested, 0.48% active. AID 803;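 active means above mean plus 3 SD of all compounds, about 5% in these data, not always enough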;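 further: 0% = vehicle buffer wells and 100% = reference agonist at full effect; tested in CHO reporter cells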
RGS16-Gao HTS – modulates binding between human RGS16 and Galphao. 220,000 tested, 0.38% active. binding response (% of control), % at 10 µM. O15492+P09471. bead-based flow cytometry RGS16-Galphao binding, fluorescence; actives lie on both sides;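 active means below 25% or above 175%, edge rows of some plates excepted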;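 further: Galphao activated by GDP with aluminum fluoride before binding; 100% = wells without compound and 0% = beads without RGS; some results beyond the cut were filed as inactive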
Insulin prom inh cell count – further read-out of Insulin prom inh, marked with its call; normalized cell count, %; measured here: cell count, toxicity; reference of the scale not given here;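 cells exposed to compound for 48 h; stained nuclei by imaging scaled within each plate; lower means fewer cells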
HSV replic up primary fold – recorded beside HSV replic up, whose call it bears; fold increase; compound at 10 µM; measured here: primary screen fold increase 10 uM; tested in PC3 cells;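 GFP signal in the first replicate; 1 = infected wells without compound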
* hit, by the source's call; i = inactive; ? = inconclusive; . = not tested or not shown. Rows are unselected (roughly 1.3% active in at least one column).

SMILES	PKD1 kinase inh	HSV replic up	HSV replic up primary fold	Insulin prom inh	Insulin prom inh cell count	GALR2 ag	RGS16-Gao HTS
C=C(C)C(=O)Nc1ccc(NC(C)C)cc1	.	i	0.91	.	.	.	100
O=C(O)c1[nH]c2ccccc2c1CC(=O)N1CCOCC1	-16	i	0.99	.	.	-2.7	105
O=C(COC(=O)c1ccc(OC(F)F)cc1)NCCCN1CCCC1=O	.	i	0.99	.	.	.	101
Cc1ccn2c(C(=O)N/N=C/c3ccc(CNC(=O)C(=O)Nc4ccc(C)c(C)c4)o3)c(C)nc2c1	2	i	1.1	-3	82	-0.9	90
Cc1ccc(S(=O)(=O)NCCNc2ccccc2[N+](=O)[O-])cc1	0	i	0.94	.	.	.	100
CC(C)NC(=O)CN1CCN(c2ncccn2)CC1	-9	i	0.64	26	92	-1.9	101
CCCCn1c(SCC(=O)Nc2cc(C)on2)nc2ccccc2c1=O	-3	i	1.1	.	.	-0.7	69
O=C(CSc1ccc(-c2ccncc2)nn1)c1ccccc1	3	i	1.1	-27	94	.	98
COc1ccc(C2(CNC(=O)c3ccc(OC)c([N+](=O)[O-])c3)CCCCC2)cc1OC	-4	i	0.9	-55	102	0.3	104
OCCOCCn1c(-c2ccccc2)nc(=S)c2c1CCCC2	1	i	0.9	.	.	.	107
N#Cc1ccccc1OCC(=O)Nc1c(C(=O)C2CC2)oc2ccccc12	4	i	0.88	21	87	3.1	102
CCC(C)C(NC(=O)OC(C)(C)C)C(=O)NC(C(=O)NC(C)C(N)=O)C(C)C (stereo not given)	-5	i	1.1	.	.	.	101
COc1ccc(N2C(=O)CC(NC34CC5CC(CC(C5)C3)C4)C2=O)c(OC)c1 (stereo not given)	-9	i	0.76	-16	156	-1.8	104
COc1ccc(NC(=O)COC(=O)/C=C/c2ccccc2[N+](=O)[O-])cc1	-12	i	0.97	-52	113	-0.2	100
C=CCn1c(-c2ccc(OC)c(OC)c2)cs/c1=N\c1ccccn1	-4	i	0.95	1	99	-1.0	96
Cc1cc(Cl)c(S(=O)(=O)N2CCN(c3ccc(F)cc3)CC2)cc1OCC(=O)NC1CCCCC1	3	i	0.83	i	68	-1.6	101
COc1cc(CC(=O)OCC(=O)Nc2ccc3c(c2)OCCO3)cc(OC)c1OC	-5	i	1	19	105	-0.1	106
COCCCNCCCCOc1ccc(C)cc1[N+](=O)[O-]	-14	i	1	15	109	-0.2	108
Cc1cccc(NCC(=O)N/N=C\c2ccc[nH]2)c1	.	i	0.98	.	.	.	103
O=S(=O)(NCCCc1ccccc1)c1cccc2nsnc12	-5	i	0.88	-50	118	-2.2	115

Complete entries, quoted from the list. Screens in order: PKD1 kinase inh, HSV replic up, HSV replic up primary fold, Insulin prom inh, Insulin prom inh cell count, GALR2 ag, RGS16-Gao HTS
Entry for C=CCn1c(-c2ccc(OC)c(OC)c2)cs/c1=N\c1ccccn1 = -4, i, 0.95, 1, 99, -1.0, 96
Entry for COc1cc(CC(=O)OCC(=O)Nc2ccc3c(c2)OCCO3)cc(OC)c1OC = -5, i, 1, 19, 105, -0.1, 106
Entry for COc1ccc(NC(=O)COC(=O)/C=C/c2ccccc2[N+](=O)[O-])cc1 = -12, i, 0.97, -52, 113, -0.2, 100

The list goes on.
SMILES	PKD1 kinase inh	HSV replic up	HSV replic up primary fold	Insulin prom inh	Insulin prom inh cell count	GALR2 ag	RGS16-Gao HTS
O=C(NCc1cc(C(F)(F)F)cc(C(F)(F)F)c1)C12CN(Cc3ccccc3)CC1C(c1cccc([N+](=O)[O-])c1)=NO2 (stereo not given)	-5	i	0.97	-48	92	0.1	96
Cc1cc(C(=O)N2CCCc3ccccc32)no1	0	i	1	50	124	-1.7	98
CC1(C)CC(=O)CC(=NCC(=O)O)C1	-6	i	0.95	-20	50	0.4	106
Cc1cc(/C=N/n2cnnc2)c(C)n1-c1cccc(Cl)c1	3	.	.	-8	171	-0.9	95
CCNC(=S)N/N=C/c1cc(C)n(-c2ccc(Cl)cc2)c1C	1	i	1	.	.	.	102
CCc1ccccc1NC(=S)N(CCCN1CCN(C)CC1)Cc1cccs1	2	i	0.97	.	.	.	99
CC(C)c1cc(=O)oc2c3c4c(cc12)CCCN4CCC3	1	?	.	.	.	1.2	105
COc1ccc(Cn2nnnc2C(c2ccc(N(C)C)cc2)N2CCC(C)CC2)cc1 (stereo not given)	9	i	1.1	.	.	-1.4	110
COc1ccccc1N1CCN(C(=O)CSc2ncccc2-c2nc3ccccc3[nH]2)CC1	3	i	0.98	-16	124	0.2	102
CC(NC(=O)c1cccc(C(F)(F)F)c1)C1CCCO1 (stereo not given)	2	i	1	-110	139	-1.6	95
NC(C(=O)O)C1CC(Cl)=NO1 (stereo not given)	-7	.	.	-23	75	-0.7	102
CC(C)c1onc(C(=O)N2CCCCC2C)c1[N+](=O)[O-] (stereo not given)	-5	i	1.1	24	87	-0.7	-45
CC(C)Oc1ccc(C2CC(=O)N(c3ccc(N(C)C)cc3)C2=O)cc1 (stereo not given)	-11	i	0.94	63	89	-2.7	101
Brc1ccccc1-c1cnco1	4	i	1.1	.	.	.	109
O=C(COc1ccc([N+](=O)[O-])cc1)N1CCN(c2nnc(-c3ccccc3)c3ccccc23)CC1	.	i	0.95	.	.	.	102
O=C(Cc1ccc(Br)cc1)N1CCN(c2ccc(F)cc2)CC1	-1	i	0.91	-25	86	0.6	99
O=c1[nH]c(SCCOc2ccccc2F)nc2ccccc12	-4	i	0.99	-14	98	.	139
Cc1ccc2c(C)nc(SC(C(=O)c3ccccc3)c3ccccc3)nc2c1 (stereo not given)	-1	i	0.97	-64	95	-0.5	151
Cc1n[nH]c(C)c1-c1nc2ccccc2[nH]1	4	i	0.85	57	141	1.1	103
C=C(C)COc1ccc2c(C)c(CC(=O)OC)c(=O)oc2c1C	-5	i	0.68	10	93	-0.3	111
CC(C)=CC1C(C(=O)Nc2ccc(Br)cn2)C1(C)C (stereo not given)	-5	.	.	.	.	0.0	83
C/C(=N\O)C(C)NC(=O)c1ccccc1 (stereo not given)	-13	i	1	6	68	-0.2	122
Cc1ccc(C(=O)N/N=C(/CC(=O)c2cccs2)C(F)(F)F)cc1	-10	i	0.83	-50	116	-1.5	101
CCOC(=O)C1=C(C)N(CCCC(=O)O)C(=O)NC1c1ccc(OC)cc1 (stereo not given)	-3	i	1.1	25	98	-1.5	101
COc1ccc(CCNC(=O)CSc2cn(Cc3ccccc3)c3ccccc23)cc1OC	-4	i	0.72	0	78	0.2	111
O=C(CSc1nnc(-c2ccncc2)n1-c1ccc(F)cc1)NC(=O)NCc1ccco1	2	i	0.89	-5	149	-0.2	107
COc1ccc(C2CC(=O)c3cnn(-c4nc(C)cc(C)n4)c3C2)cc1 (stereo not given)	-6	i	0.79	-40	67	.	106
Cc1c(CCO)c(=O)n(-c2ccccc2)n1S(=O)(=O)c1c(Cl)cc(Cl)cc1Cl	-3	i	0.97	-151	36	-2.9	100
CCOc1ccccc1NC(=O)CCC(=O)O	-22	i	0.95	-55	124	-1.3	98
CC(C)N(Cc1ccccc1)S(=O)(=O)N(C)C	-5	i	1.1	15	141	0.9	103
ONC(=Nc1ccccc1)c1ccc(Cl)cc1	-4	i	0.98	.	.	-1.3	98
CCC(C)(C)n1nnnc1CN1CCSCC1	7	i	0.94	69	112	-2.0	-49
Cc1cc(Nc2ccc(C)c(F)c2)n2ncnc2n1	5	i	0.95	.	.	-1.1	102
CN(CCCNC(=O)Cn1cc2c(n1)CCCC2)C1CCCCC1	2	i	1.1	.	.	-2.0	98
O=C(NCCc1ccccc1)c1ccc(-c2ccccc2C(F)(F)F)o1	-9	i	0.96	-5	88	-3.4	96
CCC(OC(=O)c1nsc(Cl)c1Cl)C(=O)NCCOC (stereo not given)	-2	i	0.92	.	.	.	99
O=C(CSc1nnc(Cc2ccccc2)n1-c1ccccc1)N1CCOCC1	-6	i	1.1	.	.	-1.4	86
CCCCc1ccc(Nc2ncnc3nc[nH]c23)cc1	-1	.	.	.	.	-1.5	91
COc1ccc(C(=O)NCC(=O)OCc2cccc(Br)c2)cc1	-4	.	.	.	.	-2.0	106
CC(=O)Nc1ccc(OC(=O)c2cc3cc(Br)cc(Br)c3oc2=O)cc1	-4	i	0.85	-107	33	-0.6	19*
CCOc1ccccc1-n1c(SCC(=O)N(C(C)C)C(C)C)nnc1-c1cccnc1	8	i	0.97	-39	150	-1.9	96
O=C(/C=C/c1cccc([N+](=O)[O-])c1)NCCc1ccc(F)cc1	6	i	0.98	36	150	-0.4	107
CCN(CC)C(=O)CSc1nc2nc(C)cc(C)c2c(=O)[nH]1	0	i	0.92	-14	127	0.5	103
COc1cc(CNCC2CCCO2)ccc1OCC(N)=O (stereo not given)	-8	i	1.1	11	111	.	101
Cc1c(NC2=CC(=O)CCC2)c(=O)n(-c2ccccc2)n1C	3	i	1	5	93	.	97
C=C1C(=O)C=C[C@]2(C)C[C@@H]3OC(=O)[C@](C)(O)[C@H]3C[C@@H]12	.	i	0.56	.	.	.	108
CCOC(=O)C1=C(c2ccccc2)Nc2ncnn2C1c1cccc(O)c1 (stereo not given)	.	i	0.9	.	.	.	93
Cc1ccc(NC(=O)COC(=O)CNC(=O)c2ccc(Br)cc2)c(C)c1	-8	i	0.93	-53	92	-0.8	110
CC(=O)C1=C(C)NC2(O)c3ccccc3C(=O)C12O (stereo not given)	-2	i	0.88	-36	75	.	99
CCOC(=O)N1CCN(C(=O)C2CCN(S(=O)(=O)c3ccc(C)cc3)CC2)CC1	-2	i	0.74	-40	113	-0.6	106
O=C(C1=C[C@H](c2ccccc2)C[C@H](OCc2ccc(CO)cc2)O1)N1CCOCC1	-4	i	0.92	.	.	.	99
COc1ccc(CCNC(=O)c2cccs2)cc1OC	6	i	1	.	.	.	105
O=C(COC(=O)c1ccncc1)c1ccccc1	1	i	0.93	.	.	.	104

Shown comma-delimited: entries from further up.
Compound,PKD1 kinase inh,HSV replic up,HSV replic up primary fold,Insulin prom inh,Insulin prom inh cell count,GALR2 ag,RGS16-Gao HTS
C=C(C)C(=O)Nc1ccc(NC(C)C)cc1,.,i,0.91,.,.,.,100
O=C(O)c1[nH]c2ccccc2c1CC(=O)N1CCOCC1,-16,i,0.99,.,.,-2.7,105
O=C(COC(=O)c1ccc(OC(F)F)cc1)NCCCN1CCCC1=O,.,i,0.99,.,.,.,101
Cc1ccn2c(C(=O)N/N=C/c3ccc(CNC(=O)C(=O)Nc4ccc(C)c(C)c4)o3)c(C)nc2c1,2,i,1.1,-3,82,-0.9,90
Cc1ccc(S(=O)(=O)NCCNc2ccccc2[N+](=O)[O-])cc1,0,i,0.94,.,.,.,100
CC(C)NC(=O)CN1CCN(c2ncccn2)CC1,-9,i,0.64,26,92,-1.9,101
CCCCn1c(SCC(=O)Nc2cc(C)on2)nc2ccccc2c1=O,-3,i,1.1,.,.,-0.7,69
O=C(CSc1ccc(-c2ccncc2)nn1)c1ccccc1,3,i,1.1,-27,94,.,98
COc1ccc(C2(CNC(=O)c3ccc(OC)c([N+](=O)[O-])c3)CCCCC2)cc1OC,-4,i,0.9,-55,102,0.3,104
OCCOCCn1c(-c2ccccc2)nc(=S)c2c1CCCC2,1,i,0.9,.,.,.,107
N#Cc1ccccc1OCC(=O)Nc1c(C(=O)C2CC2)oc2ccccc12,4,i,0.88,21,87,3.1,102
CCC(C)C(NC(=O)OC(C)(C)C)C(=O)NC(C(=O)NC(C)C(N)=O)C(C)C (stereo not given),-5,i,1.1,.,.,.,101
COc1ccc(N2C(=O)CC(NC34CC5CC(CC(C5)C3)C4)C2=O)c(OC)c1 (stereo not given),-9,i,0.76,-16,156,-1.8,104
COc1ccc(NC(=O)COC(=O)/C=C/c2ccccc2[N+](=O)[O-])cc1,-12,i,0.97,-52,113,-0.2,100
C=CCn1c(-c2ccc(OC)c(OC)c2)cs/c1=N\c1ccccn1,-4,i,0.95,1,99,-1.0,96
Cc1cc(Cl)c(S(=O)(=O)N2CCN(c3ccc(F)cc3)CC2)cc1OCC(=O)NC1CCCCC1,3,i,0.83,i,68,-1.6,101
COc1cc(CC(=O)OCC(=O)Nc2ccc3c(c2)OCCO3)cc(OC)c1OC,-5,i,1,19,105,-0.1,106
COCCCNCCCCOc1ccc(C)cc1[N+](=O)[O-],-14,i,1,15,109,-0.2,108
Cc1cccc(NCC(=O)N/N=C\c2ccc[nH]2)c1,.,i,0.98,.,.,.,103

Bioassay records from PubChem BioAssay.
